Screening data from PubChem BioAssay.
MLL AF4-AF9 inh: inhibitors of AF4 peptide binding to AF9, primary screen, biochemical, AlphaScreen, biotin-AF4 peptide, FLAG-AF9, single point | Protein AF-9 (Homo sapiens), P42568 | inhibition, % at 10 µM | 350,000 tested, 0.47% active | AID 651704, 2012;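 active = every replicate reaching a set inhibition limit, whatever the replicate mean, cut at about 25% in these data; inconclusive = mean inhibition reaches that limit but some replicates miss it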;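 also: 0% = plate neutral control median and 100% = total signal loss; the record names both 10 and 1 µM as test concentration; the first replicate is given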
Target sequence (P42568 whole entry, looked up): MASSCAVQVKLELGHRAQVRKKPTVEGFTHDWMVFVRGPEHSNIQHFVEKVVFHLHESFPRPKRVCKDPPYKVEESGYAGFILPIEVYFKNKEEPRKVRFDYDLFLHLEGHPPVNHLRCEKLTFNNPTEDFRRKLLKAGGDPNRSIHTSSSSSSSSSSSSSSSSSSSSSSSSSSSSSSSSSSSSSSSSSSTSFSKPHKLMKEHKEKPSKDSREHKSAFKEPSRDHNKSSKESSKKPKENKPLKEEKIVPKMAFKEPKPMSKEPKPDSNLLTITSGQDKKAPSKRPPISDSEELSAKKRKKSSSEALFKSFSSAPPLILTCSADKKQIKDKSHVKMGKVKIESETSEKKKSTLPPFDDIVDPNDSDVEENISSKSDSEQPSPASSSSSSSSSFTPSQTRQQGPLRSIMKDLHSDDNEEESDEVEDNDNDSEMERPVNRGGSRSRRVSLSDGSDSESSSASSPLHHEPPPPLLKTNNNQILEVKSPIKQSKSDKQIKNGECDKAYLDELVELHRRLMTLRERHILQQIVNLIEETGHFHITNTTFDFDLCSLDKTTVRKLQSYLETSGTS
FGF22 binding: binders of human FGF22 protein, primary screen, FGF22 synaptogenesis inhibitor project, biophysical, thermal shift, single point. recombinant FGF22 thermal shift, SYPRO orange fluorescence; percent of sucrose octasulfate shift, DMSO zero. calls only at 9.99 µM. AID 651658, 2012. 340,000 tested, 1.5% active;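 active = melting point raised past a set limit in the mean and every replicate; inconclusive = no clear call; three in four hits are not shown here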
Target sequence (Q9HCT0 whole entry, looked up): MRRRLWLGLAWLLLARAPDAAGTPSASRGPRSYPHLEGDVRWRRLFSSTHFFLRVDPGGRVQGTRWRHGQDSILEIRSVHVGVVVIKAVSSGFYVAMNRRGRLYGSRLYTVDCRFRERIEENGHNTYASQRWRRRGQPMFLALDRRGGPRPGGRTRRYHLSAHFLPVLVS
rRNA inh HTS: reduced GFP signal of wild-type E. coli, primary screen, bacterial rRNA inhibitor project, GFP/RFP fluorescence, OD600, single point; E. coli WT GFP vs humanized-ribosome RFP mutants, 24 h; hits give low values; DMSO median 0, no signal -100; GFP signal change (wild-type ribosome), % (no concentration beside the values); 350,000 tested, 1.6% active; AID 720706, 2013;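 active = significant combined selectivity score with lowered wild-type GFP, culture density cut under 30%, mutant RFP and density less affected; inactive = any of these conditions unmet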; also: one replicate is shown; some compounds called inactive have numbers as strong as hits
rRNA inh HTS OD600: further read-out of rRNA inh HTS, marked with its call; OD600 change, %; measured here: OD600 growth;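 optical density of the mix in the first replicate; 0 = DMSO median and -100 = no signal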
rRNA inh HTS RFP: recorded beside rRNA inh HTS, whose call it bears; RFP signal change, %; measured here: RFP humanized mutant strains;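 first replicate; 0 = DMSO median and -100 = no signal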
Numbers without * were called inactive; i = inactive; u = inconclusive; & = joins results of further samples. A portion of the library; the hit share may differ from the screen's.

compound | MLL AF4-AF9 inh | FGF22 binding | rRNA inh HTS | rRNA inh HTS OD600 | rRNA inh HTS RFP
CO[C@@H]1CN(C)C(=O)c2cc(NC(=O)C3CCCCC3)ccc2OC[C@@H](C)N(C(=O)Nc2ccc(C(F)(F)F)cc2)C[C@H]1C | -2.0 | i | 2&0 | -3&2 | 2.4&2.2
C[C@@H]1CN([C@@H](C)CO)C(=O)c2cc(NC(=O)C3CCCCC3)ccc2O[C@@H]1CN(C)Cc1ccc(C(F)(F)F)cc1 | 0.4 | i | -6 | -22 | 1.3
COc1ccc(S(=O)(=O)Nc2ccc3c(c2)C(=O)N([C@@H](C)CO)C[C@H](C)[C@@H](CN(C)S(=O)(=O)c2ccc(C)cc2)OCCCC[C@H](C)O3)cc1 | 2.6 | i | 1 | 10 | 5.1
COc1ccc(C(O)c2nc(-c3cccc(C(C)C)c3)cs2)cc1 (stereo not given) | -7.8 | i | -24 | -39 | -4.2
Cc1ccc(NC(=O)c2ccc(S(=O)(=O)N3CC(C)CC(C)C3)cc2)cc1S(=O)(=O)N1CCOCC1 (stereo not given) | 1.9 | i | 6 | 16 | -2.0
C[C@@H]1CN([C@H](C)CO)C(=O)c2cccc(NC(=O)Nc3ccc(F)cc3)c2O[C@H]1CN(C)Cc1ccc(-c2ccccc2)cc1 | 5.1 | i | -6 | -1 | 0.5
CO[C@H]1CN(C)C(=O)c2ccc(NC(=O)C3CCOCC3)cc2OC[C@H](C)N(CC2CC2)C[C@H]1C | -10 | i | 3 | 5 | -2.9
C[C@@H](NC(=O)C[C@@H]1CC[C@@H]2[C@H](COC[C@H](O)CN2C)O1)c1ccccc1 | -1.5 | i | -8 | -6 | 4.8
COc1ccc2c3c(n(C)c2c1)[C@H](CO)N(C(=O)NC1CCCC1)CC31CCN(C(C)=O)CC1 | -1.0 | i | 1 | 3 | 0.0
COc1cccc(CNC(=O)C[C@H]2CC[C@H]3[C@@H](COc4ccc(NC(=O)c5cccs5)cc4C(=O)N3C)O2)c1 | 0.6 | i | 0 | -1 | -0.8
C[C@H](CO)N1C[C@H](C)[C@H](CN(C)C(=O)CCC(F)(F)F)OCCCC[C@H](C)Oc2ccc(NS(=O)(=O)c3ccc(Cl)cc3)cc2C1=O | -1.8 | i | 0 | -7 | 8.7
Cc1cccc(S(=O)(=O)N2C[C@@H](O)COC[C@@H]3O[C@H](CC(=O)NCCCN4CCOCC4)CC[C@H]32)c1 | 0.6&-1.1 | i | -5&12 | -6&9 | -1.0&3.2
CO[C@@H]1CN(C)C(=O)c2cc(NS(C)(=O)=O)ccc2OC[C@H](C)N(CC2CC2)C[C@@H]1C | -0.3 | i | 4 | -2 | -0.3
COCCN(C(=O)c1cc(-c2ccc(F)cc2)nc2ccccc12)c1c(N)n(CC(C)C)c(=O)[nH]c1=O | -0.6 | i | 8 | 14 | -1.5
C[C@@H]1CN([C@H](C)CO)S(=O)(=O)c2ccc(C3=CCCC3)cc2O[C@H]1CN(C)C(=O)c1cccnc1 | -4.9 | i | -1 | 7 | -1.8
O=C1NC(=O)C([N+](=O)[O-])=C(O)C1=O | -1.3 | i | 0 | -2 | -1.9
COc1ccc(NC(=O)N[C@@H]2CC[C@H](CCn3cc(-c4ccc(OC)cc4)nn3)O[C@H]2CO)cc1 | -0.3 | i | -3 | 4 | 0.8
Cc1noc(C)c1S(=O)(=O)Nc1ccc2c(c1)C(=O)N([C@H](C)CO)C[C@@H](C)[C@H](CN(C)C(=O)c1ccncc1)OCCCC[C@@H](C)O2 | -0.3 | i | 1 | 5 | -0.9
C[C@@H]1CCCCO[C@@H](CN(C)C(=O)CCC(F)(F)F)[C@@H](C)CN([C@@H](C)CO)C(=O)c2cc(NC(=O)CCC(F)(F)F)ccc2O1 | -2.7 | i | 1 | 3 | -1.4
O=C(C[C@@H]1CC[C@H]2[C@@H](COC[C@@H](O)CN2C(=O)Nc2ccc(Cl)c(Cl)c2)O1)NCc1ccccc1 | 0.0 | i | -60 | -77 | -20
Cc1ccccc1S(=O)(=O)N1[C@H](C#N)[C@@H](c2ccc(C#CC3CC3)cc2)[C@@H]1CO | -4.7 | i | -2 | -43 | -2.6
C[C@@H]1CN([C@H](C)CO)C(=O)c2cc(NC(=O)c3ccncc3)ccc2O[C@H]1CN(C)S(=O)(=O)c1ccccc1 | -1.5 | i | -1 | -9 | -0.9
O=C(c1ccccc1)c1ccc(C(=O)O)c(C(=O)O)c1 | -44 | i | 9 | 2 | -5.7
CCOC(=O)c1c(NC(=O)COC(=O)CCNS(=O)(=O)c2ccccc2)sc(C(=O)NC)c1C | -1.2 | i | -8 | -4 | 1.1
C[C@@H]1CCCCO[C@H](CN(C)S(=O)(=O)c2ccccc2)[C@H](C)CN([C@@H](C)CO)C(=O)c2cc(NC(=O)Nc3ccc(F)cc3)ccc2O1 | 1.9 | i | -2 | -1 | -0.9

Random excerpt: three compounds from above, in no set order.
compound | MLL AF4-AF9 inh | FGF22 binding | rRNA inh HTS | rRNA inh HTS OD600 | rRNA inh HTS RFP
O=C(C[C@@H]1CC[C@H]2[C@@H](COC[C@@H](O)CN2C(=O)Nc2ccc(Cl)c(Cl)c2)O1)NCc1ccccc1 | 0.0 | i | -60 | -77 | -20
Cc1ccccc1S(=O)(=O)N1[C@H](C#N)[C@@H](c2ccc(C#CC3CC3)cc2)[C@@H]1CO | -4.7 | i | -2 | -43 | -2.6
C[C@@H]1CCCCO[C@@H](CN(C)C(=O)CCC(F)(F)F)[C@@H](C)CN([C@@H](C)CO)C(=O)c2cc(NC(=O)CCC(F)(F)F)ccc2O1 | -2.7 | i | 1 | 3 | -1.4

Later entries
compound | MLL AF4-AF9 inh | FGF22 binding | rRNA inh HTS | rRNA inh HTS OD600 | rRNA inh HTS RFP
C[C@H]1CN(c2ccccc2)C(=O)[C@@H]1CC(=O)Nc1ccc(Br)cc1 | -1.1 | i | -14 | -24 | -7.1
CC1(C(=O)Nc2cnc3ccccc3c2)CCN1C(=O)c1ccccc1CCc1ccccc1 (stereo not given) | -0.1 | i | -18 | -22 | -6.7
CC(C)NC(=O)N(C)C[C@H]1Oc2ccc(NC(=O)Nc3ccc(F)cc3)cc2CC(=O)N([C@@H](C)CO)C[C@@H]1C | -1.9 | i | 2 | -3 | -3.6
O=C(NC[C@@H]1N[C@@H](CO)[C@H]1c1ccccc1)C1CC1 | -2.2 | i | 6 | 2 | 0.4
C[C@H](CO)N1C[C@H](C)[C@@H](CN(C)C(=O)Nc2ccc(F)cc2)Oc2cc(/C=C/c3ccccc3)ccc2S1(=O)=O | 1.4 | i | 0 | 10 | 6.0
C[C@@H]1CN([C@H](C)CO)C(=O)c2cccc(NC(=O)c3ccno3)c2O[C@H]1CN(C)S(=O)(=O)c1cccs1 | -1.9 | i | 5 | 8 | 1.6
CC(=NNC(=O)C(C)SC(C)C(=O)NN=C(C)c1cccnc1)c1cccnc1 (stereo not given) | -4.6 | i | 8 | 19 | -0.5
CC(C)C#Cc1cnc2c(c1)C(=O)N([C@H](C)CO)C[C@H](C)[C@@H](CN(C)C(=O)Cc1ccccn1)O2 | -12 | i | 3 | 4 | -4.8
CC1NC(=O)c2cccnc2-n2c1nc1cc(F)ccc1c2=O (stereo not given) | -0.4 | i | -4 | 3 | -2.9
COc1cccc(NC(=O)N(C)C[C@H]2Oc3ncc(C4=CCCCC4)cc3C(=O)N([C@H](C)CO)C[C@H]2C)c1 | u | i | -8 | -7 | -0.6
CC12CCC(C(=O)CC1=O)C2(C)C (stereo not given) | -0.3 | i | 8 | 2 | -0.4
CC(C)C[C@H]1CN([C@@H](Cc2ccc(O)cc2)CN2CCC[C@@H]2CN2C(=S)NC[C@@H]2Cc2ccccc2)C(=S)N1CC1CCCCC1 | 2.3 | i | 18 | 17 | 11
C[C@@H]1CCCCO[C@H](CN(C)Cc2ccccc2)[C@@H](C)CN([C@@H](C)CO)C(=O)c2cc(NC(=O)CCCN(C)C)ccc2O1 | -0.3 | i | -1 | 3 | -1.8
C[C@@H]1CN([C@@H](C)CO)C(=O)c2cc(NC(=O)NC3CCCCC3)ccc2O[C@H]1CN(C)Cc1ccc(-c2ccccc2)cc1 | 1.4 | i | -5 | -7 | -0.7
C[C@@H]1CN([C@@H](C)CO)C(=O)Cc2cc(NS(=O)(=O)c3cccs3)ccc2O[C@H]1CN(C)C(=O)Nc1ccc2c(c1)OCO2 | 0.0 | i | -1 | 3 | -2.7
COc1ccc(CN(C)C(=O)C2CSC3(C)CCC(=O)N23)c(OC)c1 (stereo not given) | -4.8 | i | -6 | -16 | -3.5
C[C@H]1CCCCO[C@H](CN(C)S(=O)(=O)c2cn(C)cn2)[C@@H](C)CN([C@@H](C)CO)C(=O)c2cc(NC(=O)Nc3cccc4ccccc34)ccc2O1 | 7.2 | i | -4 | -3 | -2.5
COc1ccccc1N(C)S(=O)(=O)c1ccc(C(=O)N(C)Cc2ccc(OC(F)F)cc2)cc1 | -0.4 | i | -3 | -24 | -0.5
CC(C)NC(=O)N(C)C[C@H]1Oc2cc(C#Cc3cccc(F)c3)ccc2S(=O)(=O)N([C@@H](C)CO)C[C@@H]1C | 0.8 | i | -12 | -52 | 28
C[C@H]1CN([C@@H](C)CO)C(=O)c2cc(C#Cc3ccccc3)cnc2O[C@H]1CN(C)S(=O)(=O)c1ccccc1F | -6.0 | i | -2 | 1 | 0.1
Cc1noc(C)c1NC(=O)Nc1ccc2c(c1)C(=O)N([C@@H](C)CO)C[C@@H](C)[C@@H](CN(C)S(=O)(=O)c1c(C)noc1C)O2 | -1.1 | i | 3 | -1 | 1.8
Cc1noc(C)c1S(=O)(=O)N(C)C[C@H]1OCCCC[C@H](C)Oc2ccc(NC(=O)Nc3ccc(F)cc3)cc2C(=O)N([C@@H](C)CO)C[C@@H]1C | -3.0 | i | -1 | -2 | 0.0
C[C@@H]1CN([C@@H](C)CO)C(=O)c2cc(NC(=O)Nc3ccc(C(F)(F)F)cc3)ccc2O[C@H]1CN(C)S(=O)(=O)c1ccc(Cl)cc1 | -0.9 | i | 1 | 7 | -2.0
CC(C)(C)c1ccc(C#C[C@@H]2C=C[C@@H](O)[C@@H](COC(=O)Nc3ccccc3)O2)cc1 | 3.4 | i | 2 | 4 | -3.7
C[C@H]1CN([C@@H](C)CO)C(=O)Cc2cc(NC(=O)CCN3CCOCC3)ccc2O[C@H]1CN(C)S(=O)(=O)c1cccs1 | -7.2 | i | 5 | 12 | 4.5
C[C@H](CO)N1C[C@H](C)[C@@H](CN(C)C(=O)Cc2ccccn2)Oc2ncc(-c3cncnc3)cc2C1=O | -2.1 | i | -7 | -1 | -1.9
C[C@H]1CN([C@@H](C)CO)C(=O)c2cc(-c3ccccc3)cnc2O[C@H]1CN(C)C(=O)NC1CCCC1 | -1.5 | i | 3 | 10 | -3.8
CCOc1ccc(NC(=O)c2cccc(S(=O)(=O)Nc3c(C)n(C)n(-c4ccccc4)c3=O)c2)cc1 | -0.7 | i | 7 | 2 | -2.9
CCCC#Cc1ccc2c(c1)O[C@H](CN(C)C(=O)c1ccccc1F)[C@@H](C)CN([C@@H](C)CO)S2(=O)=O | 0.2 | i | -11 | -33 | -1.4
C[C@H](O)C#Cc1ccc2c(c1)O[C@@H](CN(C)Cc1ccccc1)[C@H](C)CN([C@@H](C)CO)S2(=O)=O | 3.5 | i | -17 | -42 | 14
CC(=O)N(C)C[C@H]1Oc2cc(C#CC3CCCC3)ccc2S(=O)(=O)N([C@@H](C)CO)C[C@@H]1C | 5.7 | i | -1 | -9 | 0.7
O=C(CN1CCN(C(=O)CNC(=O)c2ccc(-c3ccccc3)cc2)CC1)Nc1ccccc1Cl | -0.8 | i | -3 | 0 | 8.3
C/C(=N\NC(=O)C1CCCC1)c1ccc(NC(=O)C(F)(F)F)cc1 | -2.8 | i | 2 | 9 | -5.7
COc1cccc(C(C)=NNc2ccc([N+](=O)[O-])cc2[N+](=O)[O-])c1OC | -0.1 | i | 0 | 7 | -6.3
CCS(=O)(=O)N1CC(=O)N2[C@H](CO)[C@@H](c3ccc(-c4ccccc4F)cc3)[C@H]2C1 | 16 | i | -12 | -40 | 3.4
O=C(Nc1nccs1)[C@@H]1[C@@H](CO)[C@@H]2Cn3c(ccc(-c4cccnc4)c3=O)[C@@H]2N1CC1CCCC1 | 1.7 | i | -1 | -8 | -3.4

Two entries from above in another layout:
Sequence of screens: MLL AF4-AF9 inh, FGF22 binding, rRNA inh HTS, rRNA inh HTS OD600, rRNA inh HTS RFP
CC(=O)N(C)C[C@H]1Oc2cc(C#CC3CCCC3)ccc2S(=O)(=O)N([C@@H](C)CO)C[C@@H]1C
 : 5.7, i, -1, -9, 0.7
CCS(=O)(=O)N1CC(=O)N2[C@H](CO)[C@@H](c3ccc(-c4ccccc4F)cc3)[C@H]2C1
 : 16, i, -12, -40, 3.4
